Screening data (PubChem)
Six1-Eya2 blk: inhibitors of human Six1/Eya2 interaction; AlphaScreen GST-Six1/His-Eya2 binding, biochemical; stronger effect = lower value; control for the full effect not named in the record; activity change, % (test concentration not listed); 0.56% of 360,000 active; in the data active = activity change below about -65%; inconclusive = about -30% to -65%; inactive = above about -30%; also: % is scaled to controls: 0 for no effect and ±100 for the full control effect; compound concentration not given in the record
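Six1/Eya2 binding was read as AlphaScreen signal after compounds were pinned into GST-Six1 plus His-tagged Eya2 (5X stock 250/500 nM) in pH 8.0 Tris/NaCl/TCEP buffer, beads added, then incubated 1 h, 37 C, dark.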
D2 PAM: human D2 receptor positive allosteric modulation; AID 624464; 0.23% of 360,000 active; P14416; potentiation, % (no concentration beside the values); DiscoveRx D2 beta-arrestin cells, luminescence, 90 min; 100% = 57 uM dopamine signal; active = potentiation of 50% or more; inconclusive = 30% to 50%; inactive = 30% or less;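 also: compound concentration not given in the record; tested on top of an EC20 dose of dopamine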
Target sequence (P14416 whole entry, looked up): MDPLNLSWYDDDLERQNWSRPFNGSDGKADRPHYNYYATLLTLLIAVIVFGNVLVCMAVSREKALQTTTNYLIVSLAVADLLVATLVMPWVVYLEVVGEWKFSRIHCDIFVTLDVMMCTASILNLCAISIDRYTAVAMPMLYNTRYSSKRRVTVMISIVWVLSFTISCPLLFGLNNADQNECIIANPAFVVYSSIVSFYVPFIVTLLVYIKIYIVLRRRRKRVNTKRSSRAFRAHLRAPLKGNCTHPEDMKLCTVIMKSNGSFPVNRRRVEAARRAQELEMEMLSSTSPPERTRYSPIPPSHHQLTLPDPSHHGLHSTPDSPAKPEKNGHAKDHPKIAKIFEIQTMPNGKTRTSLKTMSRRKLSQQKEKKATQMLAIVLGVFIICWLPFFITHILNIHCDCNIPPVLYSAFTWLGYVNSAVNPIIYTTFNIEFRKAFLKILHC
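PathHunter beta-arrestin assay in DiscoveRx D2 cells. Compounds were added with an EC20 of dopamine (50 nM final) for 90 min at 37 deg C. Luminescence was read 1 h after detection reagent, with 57 uM dopamine as the EC100 control.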
TRPML1 inh: human mucolipin-1 channel inhibition; TRPML1-inducible cells, Ca2+ dye fluorescence, FDSS; stronger effect = lower value; inhibition of EC80 agonist-evoked calcium signal; activity change, negative = inhibition, % (test concentration not listed); 0.02% of 390,000 active; AID 624415; in the data active means activity change below about -50%; inconclusive means about -30% to -50%; inactive means above about -30%;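 also: stimulus is agonist 54-4 at its EC80 concentration; % is scaled to controls: 0 for no effect and ±100 for the full control effect; compound concentration not given in the record; the text of the record puts the active cut at -80%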
Target sequence (Q9GZU1 whole entry, looked up): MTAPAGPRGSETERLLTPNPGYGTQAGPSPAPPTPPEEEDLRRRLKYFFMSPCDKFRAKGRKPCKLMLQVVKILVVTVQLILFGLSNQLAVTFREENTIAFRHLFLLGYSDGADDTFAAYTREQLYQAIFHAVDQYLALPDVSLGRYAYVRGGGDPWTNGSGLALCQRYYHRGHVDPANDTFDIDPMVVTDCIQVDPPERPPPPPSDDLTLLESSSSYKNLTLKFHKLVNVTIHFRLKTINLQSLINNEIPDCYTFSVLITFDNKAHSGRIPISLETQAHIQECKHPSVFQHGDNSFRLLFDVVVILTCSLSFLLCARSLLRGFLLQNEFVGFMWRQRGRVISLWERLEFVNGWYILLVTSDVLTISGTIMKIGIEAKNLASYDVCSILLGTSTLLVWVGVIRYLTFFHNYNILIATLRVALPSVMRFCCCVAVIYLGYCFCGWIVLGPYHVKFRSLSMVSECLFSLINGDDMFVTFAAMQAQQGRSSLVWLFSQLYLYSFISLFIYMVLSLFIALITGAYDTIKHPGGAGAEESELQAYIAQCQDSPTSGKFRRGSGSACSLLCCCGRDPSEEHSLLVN
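TRPML1-DL cells, Tet-induced overnight (~16 h, 37 °C) at 1,500 cells/well, were loaded with Ca8 no-wash dye plus quencher for 45-90 min at room temperature. Compounds were pinned during FDSS kinetic reading; agonist 54-4 at EC80 (4 uM final) then added.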
CtBP-E1A blk: CtBP/E1A binding inhibition. AlphaScreen GST-E1A/His-CtBP binding, 1536-well; stronger effect = lower value; control for the full effect not named in the record. activity change, % (concentration not given with the values). 0.49% of 340,000 active. AID 651724; in the data active means activity change below about -65%; inconclusive means about -30% to -65%; inactive means above about -30%; also: % is scaled to controls: 0 for no effect and ±100 for the full control effect
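Homogeneous bead-based format: GST-tagged E1A captured on glutathione donor beads, His-tagged CtBP on nickel acceptor beads; compounds precede bead addition by 2 h at 37 °C.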
TRPML1 agonist: activates the human TRPML1 channel; TRPML1-expressing cells, Ca2+ dye fluorescence, FDSS; host cell line not named in the record; reference of the full effect not given here; activation, % (no concentration beside the values); 0.12% of 410,000 active; Q9GZU1; AID 624414; in the data active = activation above about 50%; inconclusive = about 30% to 50%; inactive = below about 30%; also: 0% is about no effect; the text of the record puts the active cut at 80%
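TRPML1-DL cells, Tet-induced overnight (~16 h, 37 degrees C), loaded 45-90 min at room temperature with Ca8 no-wash calcium dye plus quencher. FDSS fluorescence: 10 s baseline, compound pin-transfer, 110 s agonist read, then EC80 54-4 (4uM final) and 110 s antagonist read.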
TRPV1 potentiator: potentiators of human vanilloid receptor 1 (TRPV1); Q8NER1; TRPV1-expressing cells, Fluo-8 calcium influx, capsaicin EC20 potentiation; host cell line not named in the record; control for the full effect not named in the record; potentiation, % at 8.33 µM; 0.02% of 320,000 active; active means potentiation above 80%; inconclusive means 30% to 80%; inactive means below 30%; also: 0% is about no effect
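Fluo-8 calcium influx in TRPV1-expressing cells, kinetic read (ex 480/em 520 nm). Compound added and read 3 min for agonist activity, followed by capsaicin at EC20 final and 2 min further read for enhancement.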
Numbers without * were called inactive; ? = inconclusive; · = no result given. Rows were taken by chance; 0.95% or so of the library scored in one or more.

SMILES | Six1-Eya2 blk | D2 PAM | TRPML1 inh | CtBP-E1A blk | TRPML1 agonist | TRPV1 potentiator
CC(C)n1cc(/C=C(\C#N)S(=O)(=O)c2ccccc2)c2ccccc21 | 7 | -6 | 12 | 5 | 0.8 | ?
Cc1cc(C)n2c(SCc3c(C)noc3C)nnc2n1 | 0 | 8 | ? | 4 | -0.2 | 28
O=C1COc2ccc(NC(=O)c3ccccc3C(=O)O)cc2N1 | 11 | -4 | -17 | · | 1.7 | 0
OC(c1ccc(F)cc1)c1nc(-c2cncnc2)cs1 (stereo unspecified) | 6 | -6 | · | 2 | -0.3 | ·
O=C(CN1CCN(c2ccccc2)CC1)Nc1ccc2c(c1)CCC2 | -1 | -6 | 1 | 12 | 1.4 | 10
CC(c1ccon1)N(C)Cc1cn[nH]c1-c1ccc(F)cc1F (stereo unspecified) | 11 | -3 | 17 | 2 | -0.4 | 1
Cn1c(=O)c2cc(S(=O)(=O)NCCC(=O)Nc3ccc(Cl)cc3)ccc2n(C)c1=O | -1 | -4 | -14 | 27 | 0.6 | 7
O=C(NCC(=O)N1CCCC(C(F)(F)F)C1)c1ccccc1F (stereo unspecified) | 6 | 10 | -5 | 4 | -0.5 | 4
O=C(Cn1nnc(-c2ccccc2)n1)NCc1ccco1 | -6 | 0 | -6 | -3 | -0.8 | -9
Cc1cc(C)cc(OCC(=O)NNC(=O)c2cc3ccccc3o2)c1 | -1 | -8 | 16 | 4 | 0.4 | 9
CCN1C(=O)[C@H]2[C@@H](c3ccc(-c4ccc(F)cc4)c(OC)c3)N3CCCC[C@@]3(C(=O)OC)[C@H]2C1=O | -15 | -1 | 78 | -1 | -0.2 | ·
O=C(O)c1ccc(N2C(=O)CC(SC(=Nc3ccccc3)Nc3ccccc3)C2=O)cc1 (stereo unspecified) | 7 | -17 | 7 | -1 | 0.4 | -5
Cc1ccc(C2CC(c3ccc(F)cc3)Nc3nc(N)nn32)cc1 (stereo unspecified) | 1 | -3 | 8 | -10 | 5.2 | 0
COc1cc(C2(c3ccc(O)c(OC)c3)C(=O)N(C)c3ccc(Br)cc32)ccc1O | 1 | -8 | -10 | -2 | -0.1 | ·
COc1ccc(S(=O)(=O)N(C)C[C@H]2Oc3ncc(C#CC4(O)CCCC4)cc3C(=O)N([C@@H](C)CO)C[C@@H]2C)cc1 | 2 | 3 | -14 | 0 | -0.4 | ·
Cc1ccc(C(=O)c2c3ccccc3[n+]([O-])n2CCC(=O)O)cc1 | 5 | -5 | -13 | -17 | 1.0 | -1
O=C(c1ccc(OCC2CCCO2)cc1)N1CCN(S(=O)(=O)c2cccc(F)c2)CC1 (stereo unspecified) | 1 | 14 | -4 | 6 | -0.3 | -9
COCC1CCN(C(=O)c2cc(COc3ccccc3SC)on2)C1 (stereo unspecified) | 17 | -4 | 0 | 0 | 1.6 | -17
O=C(Nc1cccc(Br)c1)C1CCCC1 | 0 | 6 | -17 | · | 0.5 | ·
Cc1ccc(OCC(=O)Nc2ccc(S(=O)(=O)Nc3ccccn3)cc2)c(C)c1 | -13 | -9 | -4 | -10 | -0.1 | 3
N#C/C(=C\c1ccc(O)c([N+](=O)[O-])c1)C(=O)NCc1ccccc1 | -1 | -23 | 37 | 6 | -0.6 | 6
CCOC(=O)c1oc2ccc(S(=O)(=O)n3nc(-c4ccc(Cl)cc4)cc3N)cc2c1C | -4 | -6 | 32 | -1 | -0.8 | -27
Nc1nonc1-n1nnc(C(=O)N/N=C/c2ccc(O)cc2)c1CN1CCCCCC1 | 1 | -3 | 9 | -1 | -0.3 | ·
O=C(NCCCn1ccnc1)c1cc2ccccc2o1 | 2 | -4 | ? | -1 | -0.6 | 4
CCC(C)Sc1ccc(-c2nc3ccccn3c2NCc2ccccc2)cc1OC (stereo unspecified) | -7 | -14 | 14 | -5 | 0.8 | ·
O=C(O)C1C2C=CC3(CN(Cc4ccncc4)C(=O)C13)O2 (stereo unspecified) | -2 | 10 | -9 | -1 | 2.0 | 2
COc1ccc(OC)c(NC(=O)C2(C)CCN2Cc2ccc(OC)c3ccccc23)c1 (stereo unspecified) | -20 | 2 | · | -27 | -0.7 | ·
O=C(CCc1nnc(-c2ccsc2)o1)N1CCCCC1CCn1ccnc1 (stereo unspecified) | -3 | 6 | 1 | 7 | -0.6 | 13
CN1/C(=C\C=N\NC(=O)c2ccc(O)cc2)C(C)(C)c2ccccc21 | -21 | -13 | 11 | -3 | 0.2 | 28
CCOC(=O)c1c(-c2ccsc2)csc1N | 0 | -14 | 12 | -12 | 0.8 | 26
Cc1cc(NC(=O)CCS(=O)(=O)c2ccc(F)cc2)no1 | 6 | -8 | 3 | 9 | -0.9 | 17
COc1ccccc1CCNC(=O)CCn1nc(C)c2c(C)n(-c3ccccc3)nc2c1=O | -3 | -2 | -11 | -6 | 1.3 | 25
CN1CCN(c2ccccc2NC(=O)c2ccc3c(c2)OCCO3)CC1 | 0 | -15 | -9 | -15 | -0.9 | 16
O=C(Nc1cc(S(=O)(=O)N2CCOCC2)ccc1N1CCCC1)c1ccc(Cl)cc1 | 1 | -3 | 25 | -11 | -0.9 | -10
CN(Cc1ccccc1)c1nc(-c2ccc([N+](=O)[O-])cc2)nc2ccccc12 | -3 | 24 | 1 | -2 | -0.3 | -2
CC1CN(CC(=O)c2c(N)n(Cc3ccccc3)c(=O)n(C)c2=O)CC(C)O1 (stereo unspecified) | 0 | 1 | 44 | 5 | 0.6 | 3
Cc1ccc(-c2nc3ncccc3o2)cc1NC(=O)CC(C)C | 1 | 11 | -2 | 12 | 0.1 | -4
COc1ccccc1OCc1ccc(C(=O)NCC(C)C)o1 | 1 | 1 | -7 | -2 | 0.7 | 12
CC(NC(=O)c1ccccc1NC(=O)c1ccco1)C(=O)O (stereo unspecified) | 2 | -6 | -2 | -1 | -0.6 | -43
CN(Cc1ccccc1)C(=O)COC(=O)CNS(=O)(=O)c1ccc2ccccc2c1 | 6 | 19 | -1 | -5 | -0.1 | 3

Molecules shown so far with a thiophene ring, fused or not, in the order listed:
SMILES | Six1-Eya2 blk | D2 PAM | TRPML1 inh | CtBP-E1A blk | TRPML1 agonist | TRPV1 potentiator
O=C(CCc1nnc(-c2ccsc2)o1)N1CCCCC1CCn1ccnc1 (stereo unspecified) | -3 | 6 | 1 | 7 | -0.6 | 13
CCOC(=O)c1c(-c2ccsc2)csc1N | 0 | -14 | 12 | -12 | 0.8 | 26

6 compounds out of the list above, arranged by their value in D2 PAM, smallest number first:
Molecule	Six1-Eya2 blk	D2 PAM	TRPML1 inh	CtBP-E1A blk
N#C/C(=C\c1ccc(O)c([N+](=O)[O-])c1)C(=O)NCc1ccccc1	-1	-23	37	6
CN1CCN(c2ccccc2NC(=O)c2ccc3c(c2)OCCO3)CC1	0	-15	-9	-15
CCOC(=O)c1c(-c2ccsc2)csc1N	0	-14	12	-12
O=C(Nc1cc(S(=O)(=O)N2CCOCC2)ccc1N1CCCC1)c1ccc(Cl)cc1	1	-3	25	-11
O=C(O)C1C2C=CC3(CN(Cc4ccncc4)C(=O)C13)O2 (stereo unspecified)	-2	10	-9	-1
CN(Cc1ccccc1)C(=O)COC(=O)CNS(=O)(=O)c1ccc2ccccc2c1	6	19	-1	-5

Next section:
SMILES | Six1-Eya2 blk | D2 PAM | TRPML1 inh | CtBP-E1A blk | TRPML1 agonist | TRPV1 potentiator
Cc1cc(N(C)C)ccc1N=Nc1ccc(N)cc1 | -77* | -6 | -15 | -74* | -0.9 | ·
COc1cc(NC(=O)Nc2cccc(Cl)c2)c(C(=O)O)cc1OC | -10 | -9 | 0 | -2 | -0.5 | 14
O=C(CSc1ccc2nnc(-c3ccccn3)n2n1)Nc1ccccc1F | ? | 7 | 2 | 3 | -0.2 | 13
CCOC(=O)c1c(C)n(-c2ccc(F)cc2)c2ccc(O)cc12 | 4 | 3 | · | 4 | · | -4
O=C(Nc1ccccc1N1CCCCC1)c1ccc(-c2ccc(Cl)cc2)o1 | -12 | -6 | 32 | 7 | -0.5 | -2
C#CCNC(=O)C[C@@H]1C[C@@]2(C(=O)OCC)CCC=C2N(CCC2=CCCCC2)C1=O | 16 | · | · | -1 | -0.2 | ·
C=CCNc1nnc(SCC(=O)Nc2ccccc2OC)c2ccccc12 | 2 | -12 | -5 | 11 | -2.0 | 10
CCOC(=S)SCC(=O)Nc1nc(C)c(C)s1 | 2 | -33 | -6 | · | -0.5 | -1
O=C(CNCc1ccc(Cl)cc1)NCc1ccco1 | 7 | -4 | 14 | 2 | 2.7 | -3
CCN1C(=O)/C(=C/N2CC(C)CC(C)C2)SC1=S (stereo unspecified) | -3 | 29 | 2 | -2 | -0.8 | 18
Cc1cc(OCCCCOc2ccc(C#N)cc2)ccc1[N+](=O)[O-] | -2 | 6 | 15 | · | 2.0 | -4
COc1ccccc1-c1cnc(C(O)c2ccc(SC)cc2)[nH]1 (stereo unspecified) | -13 | -24 | · | -13 | -0.9 | ·
Cc1ccc(S(=O)(=O)N2CCC(C(=O)NCc3cccnc3)CC2)cc1 | 6 | -1 | -5 | 5 | 0.1 | -11
Cc1cccc(CCN=C(N)NS(=O)(=O)c2ccccc2)c1 | 5 | -8 | -7 | · | 0.4 | 10
Cc1nc(Nc2ccccc2Cl)sc1C(=O)Nc1ccccc1 | -14 | -6 | -16 | -2 | 1.2 | -18
CC(C)n1cc(NC(=O)c2cc(-c3ccccc3)on2)cn1 | -2 | -4 | 0 | 0 | 0.3 | -17
CC(=N)C1=C(O)CC(c2ccccc2)CC1=O (stereo unspecified) | 5 | 4 | -4 | 3 | -0.3 | 3
CN1CCN(C(=O)c2ccc(-n3cccc3)cc2)CC1 | -2 | -8 | -9 | 7 | -0.6 | 11
CCc1nc2c(OCC3COc4ccccc4O3)cccn2c1N(C)C(=O)c1cccc(OC)c1 (stereo unspecified) | -2 | 5 | · | 1 | -0.6 | ·
Cc1ccc(NC(=O)c2ccc3nccnc3c2)c(C)c1 | 1 | 2 | -9 | -3 | -0.2 | -5
CC(Oc1ccc([N+](=O)[O-])cc1)C(=O)NCC1CCCO1 (stereo unspecified) | 13 | -9 | 17 | 2 | -0.1 | -10
O=c1[nH]c(=O)n(-c2cc(Br)c(O)c(Br)c2)cc1Br | 1 | -29 | 15 | · | 0.3 | -6
CCn1c(=O)n(CC)c2cc(N3CCCC3)c(NC(=O)c3ccccc3C)cc21 | -8 | -2 | -10 | -12 | -1.9 | -25
Cc1cccc(C)c1-n1nnnc1C1c2ccccc2C(=O)N1CCOc1ccccc1 (stereo unspecified) | 0 | · | · | -3 | -0.2 | ·
COc1ccc(C(=O)Nc2ccc(Oc3ncnc4sc(-c5ccccc5)cc34)cc2)cc1OC | 1 | -2 | -9 | 2 | 0.7 | -5
NC(Cc1ccc(F)cc1)c1csc(Nc2ccc(C(=O)NCCCO)cn2)n1 (stereo unspecified) | -68* | -11 | · | -72* | -0.4 | ·
O=C(CN1C(=O)c2ccccc2C1=O)C(O)CN1C(=O)c2ccccc2C1=O (stereo unspecified) | 6 | 2 | · | 6 | -0.4 | ·
CCC(C)NC(=O)CSc1nc2c(sc3ccccc32)c(=O)n1CCCN1CCOCC1 (stereo unspecified) | -3 | -17 | -7 | 7 | -0.3 | 13
